Compound activity from PubChem.
gsp ag – activates gsp, the McCune-Albright syndrome mutation; Potency, µM (doses to about 76.9 µM), for inactives: at the highest dose activation (cAMP increase), hits mostly activators; gsp mutant cells, cAMP HTRF, 30 min; control for the full effect not named in the record; hit rate 0.13% among 340,000; active = well fitted activation curve with a large enough effect; inconclusive = small, poorly fitted or top-dose-only effect, or another doubt; inactive = no such curve, though single readings can be large or run the other way; cell line not stated here;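 note: phosphodiesterase inhibitor Ro 20-1724 added with compounds to block cAMP breakdown; potency is the fitted concentration of half-maximal effect; nearly all actives have a fitted effect of over 60% in size; about a fifth of the inactives were tested at one dose only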
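Cells in DMEM/10% FBS with G418 were pretreated with compounds in DMSO plus […] (300 uM stock) for 30 min at 37C. cAMP was measured by HTRF (cAMP-d2 plus anti-cAMP antibody-K) after 30 min at room temperature.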
Sfp inh – blocks B. subtilis Sfp PPTase activity; Q9F4F7; Biochemical Sfp PPTase activity, qHTS; Potency, µM, inactives show max response, negative = inhibition, most hits filed as inhibitors; hit rate 3.5% among 310,000; AID 1490; active = well fitted inhibition curve with a large enough effect; inconclusive = small, poorly fitted or top-dose-only effect, or another doubt; inactive = no such curve, though single readings can be large or run the other way;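 note: the enzyme is Sfp with the accession as filed and its product quenches rhodamine fluorescence; potency is the fitted concentration of half-maximal effect; 0% = enzyme reaction without inhibitor and -100% = no enzyme wells; top concentration of the series not given in the record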
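Reaction rates are the 30-min fluorescence difference (ex 525, em 598 nm) in wells containing 15 nM Sfp, 5 uM rhodamine-CoA and 12.5 uM BHQ-2-YbbR at pH 7.6 with 10 mM MgCl2.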
D2 potentiator – human D2 receptor positive allosteric modulation | P14416 | DiscoveRx D2 beta-arrestin cells, luminescence, 90 min; 100% = 57 uM dopamine signal | potentiation, % (concentration not given with the values) | hit rate 0.23% among 360,000 | AID 624464; active = potentiation of 50% or more; inconclusive = 30% to 50%; inactive = 30% or less;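 note: compound concentration not given in the record; tested on top of an EC20 dose of dopamine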
Target sequence (P14416 whole entry, looked up): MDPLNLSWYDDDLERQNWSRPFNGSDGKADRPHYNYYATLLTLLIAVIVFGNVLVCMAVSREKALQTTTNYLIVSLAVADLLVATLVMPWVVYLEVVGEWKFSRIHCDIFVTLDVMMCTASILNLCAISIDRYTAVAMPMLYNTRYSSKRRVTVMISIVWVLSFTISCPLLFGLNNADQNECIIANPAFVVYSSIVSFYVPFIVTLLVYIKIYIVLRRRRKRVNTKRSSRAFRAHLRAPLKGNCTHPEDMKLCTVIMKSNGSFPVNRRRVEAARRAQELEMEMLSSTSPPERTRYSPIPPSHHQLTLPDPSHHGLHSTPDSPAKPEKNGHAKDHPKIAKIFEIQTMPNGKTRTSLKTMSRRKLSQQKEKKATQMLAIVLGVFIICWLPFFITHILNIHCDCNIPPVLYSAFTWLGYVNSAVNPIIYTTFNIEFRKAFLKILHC
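D2 cells co-treated with compound plus 50 nM dopamine (EC20) for 90 min at 37 deg C to detect potentiation. Beta-arrestin recruitment was read as enzyme-fragment luminescence after 1 h at ambient temperature. Full response was set by 57 uM dopamine.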
TRPV1 PAM – enhances activation of the human vanilloid receptor TRPV1 | Q8NER1 | TRPV1-expressing cells, Fluo-8 calcium influx, capsaicin EC20 potentiation; host cell line not named in the record; control for the full effect not named in the record | potentiation, % at 8.33 µM | hit rate 0.02% among 320,000 | AID 540277; active means potentiation above 80%; inconclusive means 30% to 80%; inactive means below 30%; note: 0% is about no effect
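Cells expressing TRPV1 were dye-loaded with Fluo-8 and read kinetically: 10 s baseline, 3 min after compound (agonist portion), then 2 min after EC20 capsaicin (allosteric enhancer portion). Calcium-bound dye fluorescence at 480/520 nm.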
gsp antag – antagonizes gsp, the McCune-Albright syndrome mutation; gsp-mutant cells, cAMP HTRF, 30 min; control for the full effect not named in the record; Potency, µM (titrated, usually from 76.9 µM), for the others: at the top dose activity change, negative = inhibition, usual class: inhibitors; hit rate 0.4% among 340,000; AID 624288; active = falling curve of any shape with a large fitted effect; inconclusive = falling curve, mostly with a smaller effect; inactive = flat or rising curve; cell line not stated here;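 note: intracellular cAMP measured with PDE inhibitor Ro 20-1724 present during compound exposure; potency is the fitted concentration of half-maximal effect; % is set by controls: 0 for no effect and ±100 for the full control effect; nearly all actives have a fitted effect of over 65% in size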
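Cells, 2000/well, grown 16–24 h in DMEM 10% FBS with 0.5 mg/ml G418, then compounds plus […] (300 uM addition stock), 30 min at 37C. cAMP read by HTRF (cAMP-d2 and anti-cAMP antibody-K in lysis buffer) after 30 min RT.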
ClpP mod – qHTS Assay for Activators of ClpP; hit rate 1.9% among 340,000; Potency, µM (doses to about 57.5 µM), inactives show at the top dose activity change, negative = active; AID 651965, 2013; purified B. subtilis ClpP, FRET peptide cleavage, 20 min; active = well fitted falling curve with a large enough effect; inconclusive = small, poorly fitted or top-dose-only effect; inactive = no such curve, though single readings can be large or run the other way; note: potency is the fitted concentration of half-maximal effect; the source files actives as falling curves though it sought activators and does not explain the sign; nearly all actives have a fitted effect of over 65% in size; many hits overshoot -100%
Target sequence (P80244 whole entry, looked up): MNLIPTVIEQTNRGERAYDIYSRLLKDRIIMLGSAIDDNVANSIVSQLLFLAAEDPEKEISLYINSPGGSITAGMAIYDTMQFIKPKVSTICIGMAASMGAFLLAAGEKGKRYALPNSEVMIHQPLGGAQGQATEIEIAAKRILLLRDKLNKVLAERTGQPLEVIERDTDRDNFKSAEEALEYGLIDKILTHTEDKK
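Purified B. subtilis ClpP, 10 microg/mL final in Tris/HCl pH8 with KCl, BSA, glycerol and Tween-20, cleaved an Abz/nitrotyrosine-quenched decapeptide. Fluorescence (ex 320, em 430) was read at 0 and 20 min at room temperature. Delta was normalized to 5.8 microM ADEP and DMSO/no-enzyme controls.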
Menin MLL FP FL – menin-MLL binding inhibition, fluorescein peptide | Fluorescence polarization, fluorescein-MLL peptide displacement from menin | FP activity change, % at 61.4 µM | 290,000 tested, under 10 active; inconclusive = falling polarisation curve, or a change in total fluorescence; inactive = total fluorescence flat and polarisation flat or rising; no compound was filed as active; the % refers to the polarisation; negative = inhibition;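 note: % of control where 0% means no effect; inhibitors lower the polarisation; unlabelled MLL peptide was the positive control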
Active calls of the source: *; ? = inconclusive; · = no result given; [ ] = another dose, or the depositor's remark.

SMILES | gsp ag | Sfp inh | D2 potentiator | TRPV1 PAM | gsp antag | ClpP mod | Menin MLL FP FL
Cc1ccc(N=c2ssnc2Cl)cc1 | ? | 13µM* | -9 | -3 | -16% | 0.5% | 1.9
COc1ccc(S(=O)(=O)N2CCOCC2)cc1NC(=O)CSc1ncccn1 | 14%[15.4 µM] | · | -11 | · | 11% | -0.8% | ·
COc1cccc(C(C)NC(=O)Cc2cccs2)c1 (stereo not given) | 5%[15.4 µM] | 12% | -6 | -5 | -11% | -1.1% | -0.8
Cc1ccc(-c2nc3ccsc3c(=O)[nH]2)cc1 | 4% | 22% | -4 | -6 | 0% | · | -1.2
O=C(COC(=O)Cc1ccc(Cl)cc1Cl)NC1CC1 | 5% | · | 0 | · | -4% | · | ·
CCOC(=O)Cn1ccc2cc(S(=O)(=O)N3CCCC3)ccc21 | -35%[inhibitor] | · | -3 | · | · | 0.2% | ·
CC(C)C(c1nnnn1C1CCCC1)N1CCN(C(=O)c2ccco2)CC1 (stereo not given) | 18% | 20% | -10 | 2 | -13% | 1.1% | 5.6
O=C(NCC1CCCC(CNC(=O)Nc2ccc(Cl)cn2)C1)Nc1ccc(Cl)cn1 (stereo not given) | -15% | 10% | -3 | ? | -19% | · | -3.5
CCc1ccc(C(=O)/C=C/c2cnn(C)c2C)s1 | -56%[inhibitor] | 20% | -29 | -8 | -6% | -27% | 3.9
COC(=O)CCN1CCN(S(=O)(=O)c2ccc3c(c2)OCCO3)CC1 | -10% | · | -4 | 4 | 5% | 0.6% | ·
COC(=O)c1ccccc1SCC(=O)Nc1ccc(N2CCOCC2)cc1 | 9%[15.4 µM] | 2% | -6 | 20 | 0% | -1.7% | ·
COc1ccc(CC(=O)Nc2ccc(S(=O)(=O)Nc3ncccn3)cc2)cc1OC | -2%[15.4 µM] | -1% | -2 | 3 | 5% | · | -1.7
COCCN1C(=O)c2ccccc2C(C(=O)Nc2ccc3c(c2)OCCO3)C1c1ccc(F)cc1 (stereo not given) | 15% | 9% | 4 | -13 | 0% | -0.4% | -5.5
O=C(CN1C(=O)NC2(CCCCCC2)C1=O)c1cccs1 | 3% | · | -16 | -1 | 12% | ? | ·
C=CCC[C@H](Cc1ccc(F)cc1)C(=O)OC[C@@H](C)NC(=O)[C@@H](CC=C)CC(=O)N[C@@H](CO)Cc1ccccc1 | · | · | 0 | · | 0% | 0.4% | ·
C/C(=N\O)C1(C)N(O)C(C)(C)C(c2ccc(Br)cc2)=[N+]1[O-] (stereo not given) | ? | -7% | 3 | 5 | 7% | 1.3% | 1.2
COc1ccc(C(=O)NNC(=O)CCC(=O)Nc2ccc(C)cc2C)cc1 | -6% | 16% | 1 | -1 | 11% | · | 5.1
CC1(c2cc(C(F)(F)F)n3nc(C(=O)O)cc3n2)CC1 | -30% | 24% | -5 | 4 | -11% | -1.1% | 0.1
COc1ccc(N2CC(O)=C(c3nc(-c4ccc(F)cc4)cs3)C2=N)cc1 | 4%[15.4 µM] | 3% | -2 | -11 | 14% | · | 10
Cc1cc(NC(=O)CCOc2ccccc2)no1 | -23% | 1% | -11 | 7 | 9% | -0.5% | -0.4
CCCn1c2ccccc2c2nnc(SCC(=O)Nc3ncccn3)nc21 | 23% | 14% | -50 | 12 | -2%[15.4 µM] | 1.2% | 2.1
CCNC(=S)Nc1cc(OC)c(NC(=O)c2ccco2)cc1OC | -3% | -18% | -5 | -6 | 2% | · | -1.4
CCOC(=O)C1CCN(C(=O)COC(=O)CNC(=O)c2ccc(OC)cc2)CC1 | 12%[15.4 µM] | 19% | -1 | -3 | · | · | -0.6
C/C(=N\NC(=O)c1ccco1)c1ccc(NC(=O)C(F)(F)F)cc1 | 17% | 8% | -45 | 8 | -2% | -1.2% | 1.6
CCN(CC)S(=O)(=O)c1ccc(NC(=O)CCNC(=O)c2ccco2)cc1 | ? | 10% | -8 | 2 | 5% | · | 2.0
Cc1cccc(Nc2c([N+](=O)[O-])ccc3nonc23)c1 | -9% | 5% | -1 | 22 | 7% | 0.8% | -0.9
CC(C)(C)C(=O)OCc1cn(-c2ccccc2)nn1 | -21% | 12% | 0 | 4 | -3% | 1.8% | 4.4
CC(OC(=O)c1cccnc1Cl)C(=O)Nc1ccc2c(c1)OCCO2 (stereo not given) | ? | 19% | -3 | -8 | 1% | -2.2% | 4.1
CCOC(=O)c1c2ccc(OCC(=O)N/N=C/c3ccccc3C(F)(F)F)cc2n2ccccc12 | · | -4% | · | 8 | · | · | 4.4
CC(C)CCOc1ccc(C(=O)NNC(=O)CNC(=O)c2ccccc2F)cc1 | 13% | · | 3 | · | 8% | -3.2% | ·
O=C(Nc1ccnn1C1CCN(Cc2ccccc2OC(F)F)CC1)c1cccc(F)c1 | -33%[inhibitor] | -3% | -32 | -2 | 8% | -0.5% | ·
COc1ccc(CNC(=O)Cn2c(=O)oc3ccccc32)cc1OC | -12% | 6% | -6 | 24 | -2% | -1.2% | 10
COc1ccc(/C(C)=N/N=C(\C)c2ccc(OC)cc2OC)c(OC)c1 | 14%[15.4 µM] | 3% | -5 | -2 | -25% | 3.8% | 5.7
CC(=O)N1CCN(C(=O)c2cc3c(s2)CCCC3)CC1 | ? | · | -24 | · | 7% | 1.6% | ·
CCOC(=O)c1ccc(NC(=O)CN2C(=O)C(CC)SC(CC)C2=O)cc1 (stereo not given) | ? | -16% | 2 | 2 | -6% | 0.1% | 8.4
O=C(Nc1cccc(S(=O)(=O)N2CCCC2)c1)c1ccc(Cl)nc1 | 17% | · | -2 | · | -1% | · | ·
COc1cccc(C(=O)NCCS(=O)(=O)N2CCc3ccccc3C2)c1 | 7%[15.4 µM] | · | -18 | -16 | -2% | ? | ·
O=C(O)c1ccccc1C(=O)NCCc1ccc(Cl)cc1 | -24% | 12% | -7 | 5 | 6% | 0.7% | 1.4
COc1cc([N+](=O)[O-])ccc1NC(=O)C[n+]1ccccc1 | -1%[15.4 µM] | 10% | -9 | 4 | 5% | 1.5% | 2.3
O=P(O)(O)CCP(=O)(c1ccccc1)c1ccccc1 | -15% | 8% | 14 | -13 | 6% | -0.5% | 1.3
Cc1cc(NS(=O)(=O)c2ccc(NC(=S)NC(=O)c3ccc(F)cc3)cc2)no1 | -2%[15.4 µM] | 8% | -9 | -4 | -13% | -3.9% | -1.6
COc1ccc(N2C(=O)CNC2=S)cc1 | 27% | 0% | -7 | 9 | 12% | 0.9% | 2.1
CCOC(=O)c1ccc(N2Cc3cc(C)c(C)cc3C2)cc1O | · | -7% | · | 7 | · | · | -1.5
CS(=O)(=O)N(Cc1ccc(C(=O)NC2CCCC2)cc1)c1ccccc1 | 26% | -11% | 4 | 9 | 10% | -0.4% | 0.8
CCC(=O)NCC(c1ccco1)N1CCN(c2ccc(OC)cc2)CC1 (stereo not given) | 16% | 10% | -7 | -2 | 2% | -11% | -3.0
COc1ccc(OC)c(-c2cc(C(=O)Nc3c(C)nn(Cc4ccccc4C)c3C)no2)c1 | -1% | 12% | 1 | 8 | -22% | ? | 1.6
Cc1ccc(C)c(N(C(=O)CS(=O)CC(=O)Nc2ccc3c(c2)OCO3)C(C)C(=O)NC2CCCC2)c1 (stereo not given) | -26% | 13% | -11 | 4 | -18% | -0.2% | 0.1
COc1ccc(C(=O)Nc2cc(=O)[nH]c3ncnn23)cc1 | -61%[inhibitor] | 24% | -4 | 19 | -10% | -0.8% | 6.9
CCOC(=O)C(C)Sc1nc(-c2ccccc2)nc2ccccc12 (stereo not given) | 1%[15.4 µM] | ? | -15 | 2 | -1% | · | 9.1
O=C1c2ccccc2C(O)(Cc2ccccc2)N1Cc1ccco1 (stereo not given) | -28% | 7% | 8 | -16 | 2% | 0.2% | 6.6
Cc1cccn2c(=O)c3cc(C(=O)N4CC(C)CC(C)C4)sc3nc12 (stereo not given) | ? | 9% | -4 | 5 | 9% | · | -1.2
N#Cc1cnn(-c2ccc([N+](=O)[O-])cc2[N+](=O)[O-])c1N | 3% | · | 19 | · | · | -0.2% | ·
Nc1nccc(SCc2ccccc2)n1 | -36%[inhibitor] | · | 12 | · | 8% | 95% | ·
COc1ccc(CNC(=O)c2c(C)oc3c2C(=O)c2ccccc2C3=O)cc1 | -10% | 10% | 17 | 2 | 5% | 0.3% | 2.6
COc1ccc(CCC(=O)N/N=C/c2ccc3c(c2)OCO3)cc1 | 9%[15.4 µM] | · | -6 | · | -7% | -0.5% | ·
COc1cccc(CNC(=O)c2cccnc2Sc2ccc(Cl)cc2)c1 | -28% | 13% | -9 | -5 | 8% | 0.1% | ·
